# From PubChem
# AID504770 = growth inhibition of E. coli YBA685, primary screen, V. cholerae RctB inhibitors | E. coli YBA685 rctB-dependent plasmid, OD600 growth, 3 h; stronger effect = lower value | z-score (test concentration not listed) | actives 0.27% (n = 130,000);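 active means z-score under -2 on both plates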;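 further: wells of about 30 µL received 100 nL stock; score is relative to mean and SD of the test wells; the first replicate is given; strong numbers were not always called active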
# CapD inh = Bacillus anthracis CapD inhibitors, primary screen, biochemical, fluorescence intensity. purified CapD enzyme, fluorescence intensity read-out; stronger effect = lower value; some hits fall short of the stated cut. z-score (test concentration not listed). CapD gamma-glutamyltranspeptidase (Bacillus anthracis Ames Ancestor). actives 0.23% (n = 140,000);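 active means z-score under -4 in either of two replicates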;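 further: stock transfer was 100 nL into about 40 µL; score is relative to mean and spread of the plate; one replicate is shown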
# Starred values were filed as active, the others as inactive; · = not tested or not shown. An excerpt, so the mix of outcomes need not match the whole.
SMILES,AID504770,CapD inh
CCOC(=O)C1=C(CN(C)Cc2ccc(C)cc2)NC(=O)NC1CC (configuration not stated),1.65,·
Cc1ccccc1N1C(=O)CSCC1=O,0,-0.54
O=C(OCc1ccccc1F)c1ccc2c(c1)OCCO2,-0.6,·
CCSC1=NC2(CCN(S(C)(=O)=O)CC2)N=C1c1ccccc1,1,-1.07
CC[N+](CC)(CC)Cc1ccccc1,-0.6,-0.575
COCCN(C1CCN(C)CC1)S(=O)(=O)c1ccc(NC(=O)c2cc(OC)c(OC)c(OC)c2)cc1,·,-0.005
N#Cc1c(-n2cccc2)sc2c1CCN(c1cccc(F)n1)C2,1.8,0.5
Nc1c(C(=O)Nc2ccccc2)sc2nc3c(c(-c4ccco4)c12)CCC3,·,-1.12
c1ccc(OCc2nc3c4c5c(sc4ncn3n2)CCCC5)cc1,-0.2,-0.055
Cn1c(Cn2cnc3ccccc32)nnc1SCC(=O)CC(=O)Nc1ccccc1,-0.15,·
N#CC(C#N)CC(=O)c1ccccc1,0.15,3.5
COc1ccc(NC(=O)CNNc2ccc(S(N)(=O)=O)cc2)cc1,0.85,·

# Exported as labelled records: entries from further up
> COCCN(C1CCN(C)CC1)S(=O)(=O)c1ccc(NC(=O)c2cc(OC)c(OC)c(OC)c2)cc1
  AID504770 = ·
  CapD inh = -0.005

> Cn1c(Cn2cnc3ccccc32)nnc1SCC(=O)CC(=O)Nc1ccccc1
  AID504770 = -0.15
  CapD inh = ·

# (more compounds)
SMILES,AID504770,CapD inh
O=C(CCCn1nc(-c2ccccc2)c2ccccc21)NCC1CCCO1 (configuration not stated),-0.8,6.63
COc1ccc(NC(=O)CSc2nc3[nH]ncc3c(=O)n2-c2ccc(C)c(Cl)c2)c(OC)c1,2.25,-0.795
Nc1c(Br)cc2oc(-c3ccccc3F)nc2c1Br,0.6,0.875
Cc1ccc(-n2c(C)cc(C(=O)COC(=O)c3ccco3)c2C)cc1,-0.45,·
COCCn1c(-c2ccncc2)nn(CN2CC(C)OC(C)C2)c1=S (configuration not stated),0.35,·
O=C(c1ccccc1)C(Sc1nnc(-c2ccco2)o1)c1ccccc1 (configuration not stated),2.35,·
CN1/C(=C\C(=O)COC(=O)c2cccnc2)C(C)(C)c2ccccc21,-0.05,·
Cn1cnc2c1c(=O)n(Cc1cccc(Br)c1)c(=O)n2C,·,-0.435
O=C1NC(=O)/C(=C/c2cccc(OC(=O)c3ccco3)c2)S1,1.55,-0.82
CCOC(=O)c1cnc2ccc(C(=O)OC)cc2c1N1CC2(C)CC1CC(C)(C)C2 (configuration not stated),0.35,-0.08
Cc1ccc(C(CNC(=O)C(C)C)N2CCN(C)CC2)cc1 (configuration not stated),1.4,·
COCCN(Cc1nc2ccccc2c(=O)[nH]1)C(=O)c1ccc(C)s1,0.2,·
CCCn1c(N)c(C(=O)CN2CCCc3ccccc32)c(=O)n(C)c1=O,-0.45,·
O=c1/c(=C/c2cn(Cc3ccccc3F)c3ccccc23)sc2nc3ccccc3n12,·,0.025
CCOc1ccc(Oc2nnc(C)c3ccccc23)cc1,0.75,·
C=CCOc1ccc2c(c1)C(=O)c1cc(OCC=C)ccc1-2,·,0.895
Cc1cccc(-n2c(N)cc(=O)[nH]c2=S)c1,-1.65,-0.575
CSc1ccccc1C(=O)N1CCSCC1,-0.8,-0.555
CC(Cc1ccco1)NC(=O)c1ccc(NC(=O)C2=CSCCO2)cc1 (configuration not stated),0,-0.055
Nc1nc(SC/C=C/c2ccccc2)nc2sc3c(c12)CCCC3,0.6,0.245
CCOC(=O)C1=C(C)N=c2s/c(=C\c3cc4c(cc3Br)OCO4)c(=O)n2C1c1ccccc1 (configuration not stated),·,-0.04
S=c1n(CN(Cc2ccccc2)Cc2ccccc2)nnn1-c1ccccc1,-0.55,-0.08
CCn1c(CNC(=O)c2ccc(Cl)cc2)nnc1SCC(=O)NC1=NCCS1,-0.45,·
NC(=O)CSc1nnc(Nc2ccccc2)s1,-1,·
CC(C)SC1=NC(C)(C)C=C(/C=C/c2c(Cl)cccc2Cl)N1,·,-0.175
O=C(O[C@@H]1C[C@H]2C(=O)N[C@@H](Cc3ccccc3)C(=O)N2C1)c1ccccc1,0.25,·
COc1cc(/C=C2\C(=O)NC(=O)N(c3ccc(C(C)(C)C)cc3)C2=O)ccc1OCC(=O)O,·,0.415
CN(C)CCC(OC(=O)c1ccccc1)c1ccc(S(C)(=O)=O)cc1 (configuration not stated),·,-0.095
Oc1ccc(-c2nc(-c3ccc4sc5ccccc5c4c3)c(-c3ccccc3)[nH]2)cc1O,·,26.4
COC(=O)c1ccccc1S(=O)(=O)N(CCCN1CCOCC1)Cc1cccs1,-0.6,-1.16
COc1ccccc1-c1c(C#N)c(N)nc(SSc2nc(N)c(C#N)c(-c3ccccc3OC)c2C#N)c1C#N,-0.5,·
CCCNC(=O)c1sc2c(c1C(=O)Nc1ccccn1)CCCC2,1.85,-0.54
CN(C(=O)CN1CCN(S(=O)(=O)c2ccc3c(c2)CN(C(=O)C(F)(F)F)CC3)CC1)c1ccccc1,·,-0.155
Clc1ccc(C2=CSC3=NCCN23)cc1,·,0.445
CCCn1c(=O)c(C#N)cn(-c2ccc(Cl)cc2)c1=O,·,0.315
COc1ccc(-c2nc(O)c3cnccn23)cc1,-0.4,·
CC(=O)Nc1ccc(C2=CSC3=NCCN23)cc1,-1.7,·
O=C(NC1CCCC1)C1CC(=O)N(CCc2ccccc2)C1 (configuration not stated),-0.3,0.29
Cc1cccc(C(=O)N(c2ccccn2)C(C)c2ccco2)c1 (configuration not stated),-0.2,-0.545
Cc1ccc(N2C(=O)N(Cc3cccnc3)c3ccccc3S2(=O)=O)cc1F,0,-0.935
O=C(c1ccc(Cl)cc1Cl)N1CCC(c2c[nH]c3ccccc23)CC1,·,-0.565
O=C(O)Cc1ccc(OCc2ccccc2)cc1,-1.25,-0.08
O=c1c2cc(-c3ccccc3)sc2ncn1Cc1ccc(F)cc1,-0.55,2.33
O=C(CSc1nnc(-c2cccs2)n1C1CC1)N1CCCC1c1ccc2c(c1)OCCCO2 (configuration not stated),-0.85,·
COc1cccc(CN2CCC(NC(=O)c3ccc(C)nc3Cl)C2)c1[N+](=O)[O-] (configuration not stated),·,-0.23
CCCN(Cc1nnc(-c2ccccc2Cl)o1)C(=O)C1(c2ccccc2)CC1,-0.2,·
O=c1c2nnn(Cc3ccccc3)c2ncn1C/C=C/c1ccccc1,2.4,·
CC(=O)Nc1sccc1C(N)=O,0.25,·
O=C(O)c1ccccc1C(=O)Nc1ccc(OC(F)F)cc1,-0.55,-0.775
COCCNC(=O)c1ccc(NCCc2ccc(Cl)cc2)c(S(=O)(=O)Nc2cccc(C(F)(F)F)c2)c1,·,0.86
COc1ccc(S(=O)(=O)N2CCN(C(=O)c3cccs3)CC2)cc1OC,-0.7,0.39
Cc1ccc(Nc2ccn(-c3nc(-c4ccccc4)oc3-c3ccccc3)c(=O)n2)cc1,·,-0.395
CC(C)c1nccn1-c1ccc(N)cc1,1.3,·
O=C(NCc1ccccc1)C1CCCN(S(=O)(=O)N2CCCCCC2)C1 (configuration not stated),0.1,72.1
O=C(NCc1ccccn1)c1ccc2c(c1)N(Cc1ccccc1)CCS2,-0.3,82
c1nnnn1C12CC3CC(CC(C3)C1)C2,0.5,·
COc1ccc(C2(O)CN(c3ccc(Cl)cc3)C3=[N+]2CCCS3)cc1OC (configuration not stated),·,0.495
COc1ccc(CC(=O)Sc2nc3ccccc3s2)cc1,0.35,-0.26
O=C(O)CC(CC(=O)O)c1ccc(Cl)cc1,·,0.265
CCC(=O)Nc1cccc(C2=NN(C(C)=O)C(c3ccc(F)cc3)O2)c1 (configuration not stated),0.1,4.15

# (cont.)
SMILES,AID504770,CapD inh
Cc1nccc2[nH]c(=O)c(C(=O)NCCCN3CCC(Cc4ccccc4)CC3)cc12,-0.5,-0.1
CCC(CC)NC(=O)c1cc(=O)c2ccccc2o1,-0.1,·
CC(Sc1nc2c(c(=O)[nH]1)CCCC2)C(=O)Nc1ccc(Cl)cc1 (configuration not stated),-0.1,·
CCOc1cc(-n2cccc2)c(OCC)cc1N1CCOCC1,2.3,1.47
Cc1ccc(Cl)cc1N1CCN(S(=O)(=O)c2cc(F)ccc2C)CC1,·,-0.36
Cc1cc(C)cc(NS(=O)(=O)c2ccc(NC(=O)C3CCCCC3C(=O)O)cc2)c1 (configuration not stated),-0.5,·
CCSCCOC(=O)C1=C(C)NC2=C(C(=O)CC(C)(C)C2)C1c1coc2ccc(C)cc2c1=O (configuration not stated),·,-0.095
CC(=O)C1=NN(c2ccc(C)cc2)C(c2c[nH]c3ccccc23)N1C1CCCCC1 (configuration not stated),·,-0.485
NC(=O)c1cccc(N)c1,·,-0.1
Cn1cnc(S(=O)(=O)N2CCN(c3ccc(F)cc3)CC2)c1,-0.4,-0.255
Cc1snc2sc(C(=O)c3ccc(Br)cc3)c(N)c12,·,-0.17
COC(=O)c1c[nH]c(=O)c2ccccc12,1.25,3.07
COc1cc(OC)c(C2C=C(c3cccc(Br)c3)Nc3nc4ccccc4n32)cc1OC (configuration not stated),·,0.27
Brc1ccc(-c2nn3c(-c4ccccc4)cn4c3c2CCCC4)cc1,·,-0.155
COc1ccc(-c2nnc(SCC3COc4ccccc4O3)o2)cc1 (configuration not stated),1.2,·
Cc1cc(C(=O)O)sc1C,-0.9,0.03
C=CCn1c(CCNC(=O)c2ccccc2)nc2ccccc21,-0.15,-0.215
COCCN(Cc1nc2ccccc2c(=O)[nH]1)C(=O)c1cn2c(C)cccc2n1,-0.45,·
NS(=O)(=O)c1ccc2c(c1)C1C=CCC1C(C1CC=CCC1)N2 (configuration not stated),0.1,24.4
Cn1c(SCc2ccccc2)nnc1-c1ccc2ncccc2c1,·,0.59
CCCCN1C2=C(C(=O)CC(C)(C)C2)C(c2ccccc2)C2=C1c1ccccc1C2=O (configuration not stated),·,-0.045
NNC(=O)CNc1nc2ccccc2s1,0.7,·
CC(=O)Nc1ccc(-n2nncc2-c2ccco2)cc1,-0.75,3.62
COc1ccc(NC(=O)c2cccs2)cn1,-0.75,-0.13
Cc1c(CCNC2=CC(=O)OC23CCCCC3)c2ccccc2n1C,1.45,-0.41
S=c1oc2ccc(Cl)cc2n1Cc1ccccc1,-0.85,0.365
O=C1NC2(O)/C(=N/NC(=O)c3ccccc3O)c3ccccc3C2(O)N1 (configuration not stated),1.3,-1.12
O=C(Cc1ccccc1)N1CCN(C2CCCCC2)CC1,-0.15,0.05
O=S1(=O)CC(NCc2ccccc2)C(Nc2ccc(Cl)cc2)C1 (configuration not stated),-0.6,-0.52
CC(=O)ON1C(=O)c2cccc3cccc(c23)C1=O,·,47.2
Nc1ncccc1OCc1ccccc1,·,0.645
COC(=O)c1cc(S(=O)(=O)N2c3ccccc3CC2C)cn1C (configuration not stated),-1.05,0.33
O=C1c2ccccc2C(=O)N1CCCCSc1nnnn1-c1ccccc1,1.85,·
COC(=O)c1ccc2c(=O)n3nc(N)sc3nc2c1,0.2,19
Cc1[nH]c2ccccc2c1C(c1ccncc1)N1CCCC1 (configuration not stated),-0.25,·
CCOc1cc(NC(=S)NCCCN2CCOCC2)c(OCC)cc1NC(=O)C1CC1,-0.5,·

# Shown bar-delimited: part of the list above.
SMILES | AID504770 | CapD inh
NNC(=O)CNc1nc2ccccc2s1 | 0.7 | ·
CC(=O)Nc1ccc(-n2nncc2-c2ccco2)cc1 | -0.75 | 3.62
COc1ccc(NC(=O)c2cccs2)cn1 | -0.75 | -0.13
Cc1c(CCNC2=CC(=O)OC23CCCCC3)c2ccccc2n1C | 1.45 | -0.41
S=c1oc2ccc(Cl)cc2n1Cc1ccccc1 | -0.85 | 0.365
O=C1NC2(O)/C(=N/NC(=O)c3ccccc3O)c3ccccc3C2(O)N1 (configuration not stated) | 1.3 | -1.12
O=C(Cc1ccccc1)N1CCN(C2CCCCC2)CC1 | -0.15 | 0.05
O=S1(=O)CC(NCc2ccccc2)C(Nc2ccc(Cl)cc2)C1 (configuration not stated) | -0.6 | -0.52
CC(=O)ON1C(=O)c2cccc3cccc(c23)C1=O | · | 47.2
Nc1ncccc1OCc1ccccc1 | · | 0.645
COC(=O)c1cc(S(=O)(=O)N2c3ccccc3CC2C)cn1C (configuration not stated) | -1.05 | 0.33
O=C1c2ccccc2C(=O)N1CCCCSc1nnnn1-c1ccccc1 | 1.85 | ·
COC(=O)c1ccc2c(=O)n3nc(N)sc3nc2c1 | 0.2 | 19
Cc1[nH]c2ccccc2c1C(c1ccncc1)N1CCCC1 (configuration not stated) | -0.25 | ·
CCOc1cc(NC(=S)NCCCN2CCOCC2)c(OCC)cc1NC(=O)C1CC1 | -0.5 | ·

# (listing goes on)
SMILES,AID504770,CapD inh
Cc1ccc2c(c1)NC(C)(C)c1sn(-c3ccc(C(C)C)cc3)c(=S)c1-2,·,-0.635
Cc1cc(N2CCOCC2)ccc1/C=c1\sc2nc3ccccc3n2c1=O,0.7,0.585
CCOc1ccc(C(C)NC(=O)c2cccnc2OCC)cc1OCC (configuration not stated),-0.6,·
COC(=O)c1ccc(OCC(O)Cn2cc(/C=N/O)c3ccccc32)cc1 (configuration not stated),-0.15,·
O=C(CCN1C(=O)C2CC=CCC2C1=O)Nc1cc(C(F)(F)F)ccc1-n1cncn1 (configuration not stated),1.45,·
COc1ccc(C(=O)OCC(=O)NCc2ccccc2)cc1,-1.75,·
N#Cc1ccc(OCC(=O)NCCCN2CCCC2=O)cc1,-0.5,·
Cc1cc(C)c(NC(=O)C2COc3ccccc3O2)c(C)c1 (configuration not stated),0.85,0.535
Cc1ccc2cc3cc(C(=O)N4CCN(c5cc(Cl)ccc5C)CC4)oc3nc2c1,-0.05,0.78
Cc1cc(C)c(-c2cc(NC(=O)CN3CCCC(C(N)=O)C3)n(-c3ccccc3)n2)cc1C (configuration not stated),-0.7,·
Cc1ccc2nc(NCCO)[nH]c2c1,-0.2,3.47
O=C1c2ccccc2C(=O)N1CN1CCCCC1,-0.5,1.39
